Bioassay records (PubChem)
TRPML1 agonist = agonists of human TRPML1 channel; activation, % (test concentration not listed); 410,000 tested, 0.12% active; Q9GZU1; AID 624414; TRPML1-expressing cells, Ca2+ dye fluorescence, FDSS; host cell line not named in the record; reference of the full effect not given here; in the data active = activation above about 50%; inconclusive = about 30% to 50%; inactive = below about 30%; further: 0% is about no effect; the text of the record puts the active cut at 80%
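TRPML1-DL cells, Tet-induced overnight (~16 h, 37 degrees C), loaded 45-90 min at room temperature with Ca8 no-wash calcium dye plus quencher. FDSS fluorescence: 10 s baseline, compound pin-transfer, 110 s agonist read, then EC80 54-4 (4uM final) and 110 s antagonist read.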
Six1-Eya2 blk = Six1/Eya2 interaction inhibition. 360,000 tested, 0.56% active. AlphaScreen GST-Six1/His-Eya2 binding, biochemical; hits give low values; control for the full effect not named in the record. activity change, % (concentration not given with the values). Q15475+O00167; in the data active = activity change below about -65%; inconclusive = about -30% to -65%; inactive = above about -30%; further: on the % scale 0 is the no-effect control and ±100 the full control effect
Target sequence (O00167 whole entry, looked up): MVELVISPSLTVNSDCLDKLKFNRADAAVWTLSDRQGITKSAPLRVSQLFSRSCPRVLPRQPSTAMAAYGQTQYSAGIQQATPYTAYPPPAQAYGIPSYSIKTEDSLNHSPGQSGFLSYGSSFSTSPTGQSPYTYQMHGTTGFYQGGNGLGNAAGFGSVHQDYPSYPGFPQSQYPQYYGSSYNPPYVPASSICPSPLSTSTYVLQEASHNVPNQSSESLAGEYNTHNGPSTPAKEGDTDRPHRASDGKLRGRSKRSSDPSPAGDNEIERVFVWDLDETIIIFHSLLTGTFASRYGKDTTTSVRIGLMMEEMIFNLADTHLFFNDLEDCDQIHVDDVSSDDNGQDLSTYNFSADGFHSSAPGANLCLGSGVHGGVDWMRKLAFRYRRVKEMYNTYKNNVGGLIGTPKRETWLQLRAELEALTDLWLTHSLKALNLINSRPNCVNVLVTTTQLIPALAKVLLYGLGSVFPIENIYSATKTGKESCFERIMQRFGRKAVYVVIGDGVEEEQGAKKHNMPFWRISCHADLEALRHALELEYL
Target sequence (Q15475 whole entry, looked up): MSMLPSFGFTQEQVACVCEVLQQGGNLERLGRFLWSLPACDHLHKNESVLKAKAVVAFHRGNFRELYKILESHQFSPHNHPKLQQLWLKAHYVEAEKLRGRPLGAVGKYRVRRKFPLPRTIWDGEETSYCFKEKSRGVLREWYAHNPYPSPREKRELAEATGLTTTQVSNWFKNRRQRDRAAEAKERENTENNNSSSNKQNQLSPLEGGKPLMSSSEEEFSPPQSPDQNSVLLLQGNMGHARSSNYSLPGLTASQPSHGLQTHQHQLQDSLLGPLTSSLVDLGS
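Homogeneous AlphaScreen proximity assay pairing GST-Six1 with His-tagged Eya2 (added as 5X mix: 250 nM and 500 nM) in 50 mM Tris pH 8.0, 300 mM NaCl, 1 mM TCEP. Glutathione donor and nickel acceptor beads; 1 h, 37 °C, dark.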
TRPML1 blocker = inhibitors of human TRPML1 channel | Q9GZU1 | TRPML1-inducible cells, Ca2+ dye fluorescence, FDSS; hits give low values; inhibition of EC80 agonist-evoked calcium signal | activity change, negative = inhibition, % (concentration not given with the values) | 390,000 tested, 0.02% active | AID 624415; in the data active means activity change below about -50%; inconclusive means about -30% to -50%; inactive means above about -30%;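 further: stimulus is agonist 54-4 at its EC80 concentration; on the % scale 0 is the no-effect control and ±100 the full control effect; compound concentration not given in the record; the text of the record puts the active cut at -80%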
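Tet-induced TRPML1-DL cells loaded with Ca8 no-wash calcium dye were read kinetically on FDSS. Compound addition was followed by EC80 agonist 54-4 (4 uM final); inhibition was read over 110 s.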
D2 potentiator = positive allosteric modulators of human D2 dopamine receptor; potentiation, % (concentration not given with the values); 360,000 tested, 0.23% active; DiscoveRx D2 beta-arrestin cells, luminescence, 90 min; 100% = 57 uM dopamine signal; P14416; active = potentiation of 50% or more; inconclusive = 30% to 50%; inactive = 30% or less;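 further: compound concentration not given in the record; tested on top of an EC20 dose of dopamine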
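D2 cells co-treated with compound plus 50 nM dopamine (EC20) for 90 min at 37 deg C to detect potentiation. Beta-arrestin recruitment was read as enzyme-fragment luminescence after 1 h at ambient temperature. Full response was set by 57 uM dopamine.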
D2 agonist = agonists of human D2 dopamine receptor (beta-arrestin) | P14416 | DiscoveRx PathHunter D2 beta-arrestin, luminescence, 90 min; 100% = 57 uM dopamine signal | activation, % (no concentration beside the values) | 360,000 tested, 0.084% active | AID 624465; in the data active = activation above about 40%; inconclusive = about 15% to 40%; inactive = below about 15%; further: compound concentration not given in the record; the text of the record calls up to 30% inactive
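DiscoveRx PathHunter D2 beta-arrestin cells (2,100/well) attached overnight, then compound-stimulated 90 min at 37 C in HBSS/10 mM HEPES/0.1% Tween-20 buffer; beta-galactosidase complementation read by luminescence after 1 h at ambient temperature. Dopamine 57 uM final (EC100) as control.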
PINK1 modulator = PINK1 expression modulation | PINK1 immunofluorescence, high-content cytometry, 24 h | Potency, µM (titrated, usually from 76.6 µM), without a hit: top-dose activation (PINK1 increase), most hits filed as activators | 410,000 tested, 0.2% active | AID 624263; active = well fitted activation curve with a large enough effect; inconclusive = small, poorly fitted or top-dose-only effect; inactive = flat fitted curve, though single readings scatter; cell line not stated here;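 further: potency means the concentration at half of the fitted maximal effect; % of control where 0% means no effect; nearly all actives have a fitted effect of over 65% in size; a mitochondrial uncoupler was the plate control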
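PINK1 protein, normally rapidly degraded, was detected by immunofluorescence after 24 hour compound treatment of a stable cell line. Titration data (5 concentrations) came from laser-scanning cytometry, with CCCP-treated wells as controls.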
* = called active by the depositor; ? = inconclusive; nt = no result given; [ ] = another dose, or the depositor's remark. Rows were taken by chance, and some 1% of all compounds hit somewhere here.

SMILES	TRPML1 agonist	Six1-Eya2 blk	TRPML1 blocker	D2 potentiator	D2 agonist	PINK1 modulator
CCOc1cc(C2C(C(=O)N3CCOCC3)=C(C)NC3=C2C(=O)CCC3)ccc1O (stereo not given)	0.6	7	-6	9	0.4	-1.4%[38.3 µM]
CC(C)CN1C(=O)C(=O)N(CC(=O)NC2CCCc3ccccc32)C1=O (stereo not given)	-0.3	1	-5	1	5.8	-1.6%
COC(=O)c1sccc1-n1cccc1C(=O)N1CCOCC1	-0.7	-4	12	-5	-5.0	3.0%
COc1ccc(/C=C2\SC(N)=NC2=O)cc1Cl	2.5	-3	24	-3	-2.6	1.5%
Nc1cccc(C(=O)O)c1	-0.1	-3	-4	13	-2.9	1.0%
Cc1ccccc1S(=O)(=O)Cc1ccc(C(=O)NCCN2CCN(Cc3ccccc3)CC2)o1	-0.5	-2	27	-15	-0.3	-1.8%
Cc1cccc(N2CCN(C(=O)C(NS(=O)(=O)c3cccs3)c3ccccc3)CC2)c1C (stereo not given)	1.6	-3	8	-17	0.3	22%[38.3 µM]
O=C(COC(=O)c1ccc(O)cc1)c1ccc(S(=O)(=O)N2CCCCC2)cc1	2.1	-13	-8	3	0.9	2.6%
O=C(NCc1n[nH]c(=S)n1-c1ccc(Cl)c(Cl)c1)c1ccc(S(=O)(=O)N2CCCCC2)cc1	-0.2	-12	-26	-11	-9.2	9.2%
CC1=CC(=O)[C@@H](O)[C@@H](c2ccccc2Br)N1C	0.2	2	0	2	0.5	1.9%
O=C(Nc1cccc(S(=O)(=O)N2CCOCC2)c1)c1ccccn1	-0.8	1	-14	-9	-1.2	-0.3%
O=C(COc1cccnc1[N+](=O)[O-])Nc1ccc(N2CCOCC2)cc1	2.1	20	-18	0	-4.1	1.3%
O=C(N/N=C/c1ccccc1[N+](=O)[O-])c1ccncc1	1.0	1	25	2	6.5	1.7%
Cc1noc(C)c1S(=O)(=O)N(C)C[C@@H]1OCc2cn(nn2)CCCC(=O)N([C@@H](C)CO)C[C@H]1C	0.0	1	-7	1	-10	1.7%
CCOC(=O)c1cc(CC)sc1N1C(=O)CC(Sc2ccccc2C(=O)O)C1=O (stereo not given)	-0.4	-3	-1	-6	-0.1	1.6%
CN1CCN(c2ccc(NC(=O)COc3ccccc3)cc2Cl)CC1	0.3	-3	-4	-17	-2.3	0.3%
O=C(CCc1nnc(CCCCc2ccccc2)o1)N1CCC(N2CCCC2)CC1	0.9	-1	-10	-6	-3.1	0.1%
C[C@@H]1CN([C@@H](C)CO)C(=O)CCCn2nncc2CO[C@@H]1CN(C)C(=O)OCc1ccccc1	-0.6	9	-3	1	-3.1	2.7%
Cc1cc(C)c2c(CC(=O)N3CCCC3)coc2c1	-0.3	-10	0	-21	0.5	1.2%
CC1(C)Cc2c(sc3nc4n(c(=N)c23)CCC4)CO1	0.0	-1	-8	-7	-1.7	-0.9%
CC(=O)c1cccc(NC(=O)COC(=O)COc2ccc(Cl)cc2)c1	-0.1	-11	12	-8	-2.3	1.5%
CN(C)S(=O)(=O)N1CCC(N2CCN(Cc3ccc(F)cc3)C(=O)C2=O)CC1	-0.8	nt	-25	nt	nt	2.3%
CCNC(=O)CN1C(=O)NC2(CCCCCC2)C1=O	-1.1	-2	-11	-5	-3.2	-0.9%
CN(Cc1ccccc1)C(=O)c1nc2ccccn2c1CN1CCCC1c1nccs1 (stereo not given)	-0.2	-2	19	-4	0.5	0.4%
COCC1=C(C(=O)OC)C(c2cccs2)n2ncnc2N1 (stereo not given)	-0.3	1	19	-2	-2.2	-2.2%

In the list so far, these contain a COOH group.
SMILES	TRPML1 agonist	Six1-Eya2 blk	TRPML1 blocker	D2 potentiator	D2 agonist	PINK1 modulator
Nc1cccc(C(=O)O)c1	-0.1	-3	-4	13	-2.9	1.0%
CCOC(=O)c1cc(CC)sc1N1C(=O)CC(Sc2ccccc2C(=O)O)C1=O (stereo not given)	-0.4	-3	-1	-6	-0.1	1.6%

The listing continues:
SMILES	TRPML1 agonist	Six1-Eya2 blk	TRPML1 blocker	D2 potentiator	D2 agonist	PINK1 modulator
O=C(c1ccc(CS(=O)Cc2ccccc2Cl)o1)N1CCN(c2ccccc2)CC1 (stereo not given)	-0.7	-3	-8	-12	-2.3	0.9%
CSc1ccccc1NC(=O)c1cc2ncc(Br)cn2n1	-0.4	22	-11	0	-0.8	4.6%
COc1ccc(OC)c(NC(=O)c2ccc(-n3cccn3)nc2)c1	-0.4	1	1	-9	-1.0	1.3%[38.3 µM]
O=S(=O)(NCCN1CCOCC1)c1ccc(-c2ccc(S(=O)(=O)NCCN3CCOCC3)cc2)cc1	nt	-7	nt	-16	-3.2	4.1%
COc1ccc([C@@]23Oc4cc(OC)cc(OC)c4[C@]2(O)[C@H](O)[C@H](C(=O)N(C)C)[C@H]3c2ccccc2)cc1	0.7	10	-21	-17	-5.3	-0.6%
CCOC(=O)CN1C(=O)c2cccnc2Oc2ccccc21	1.7	nt	-6	nt	nt	1.1%
Cc1ccc(OCCN2C(=O)S/C(=C\c3ccc(C)o3)C2=O)cc1	-0.3	-3	7	-7	-0.1	?
O=C(Nc1cccc(S(=O)(=O)N2CCCCC2)c1)c1cncc(Br)c1	0.4	-5	58	-16	-2.1	2.1%
COc1ccc(CNc2nc(-c3ccccc3)nn2C(=O)c2cccs2)cc1	1.4	5	8	-3	-2.4	-2.1%[38.3 µM]
CCN(CC)c1ccc(C(=O)Nn2c(C)nc3ccccc3c2=O)cc1	1.7	2	14	-13	-3.2	0.9%
COc1ccccc1CC(=O)c1ccccc1OC	0.1	-11	24	-3	0.4	21%
N#CCSc1ccc2nc(-c3ccccc3)cn2n1	-0.9	15	-3	-8	3.3	1.2%
CCN1CCN(c2ccc(S(=O)(=O)N3CCOCC3)cc2NC(=O)c2ccc(C(F)(F)F)cc2)CC1	0.9	3	-6	-9	-5.7	-0.2%
O=c1cc(-c2ccc(O)cc2)oc2c1ccc1ccccc12	0.0	0	31	-3	-0.6	5.9%
Cc1ccc(CC(=O)Nc2c(C(=O)N3CCN(c4ccccc4F)CC3)oc3ccccc23)cc1	1.5	nt	5	nt	nt	4.0%
C/C(CC(=O)Nc1ccc2c(c1)OCCO2)=N\NC(=O)COc1ccc(C)cc1	0.4	-1	48	-5	-2.0	1.4%
O=C(O)Cn1nc(-c2ccccc2)cc1-c1ccccc1	0.4	5	3	-2	-6.3	-0.9%
CC(C)(C)S(=O)N1Cc2ccc(CO)cc2[C@@H]1CCO (stereo not given in full)	1.0	31	-12	5	-2.1	3.8%
O=C(CSc1ccccc1)NCC1(N2CCOCC2)CCCCC1	-0.4	0	10	-7	-3.9	0.3%
Cn1nc(C(F)(F)F)c2cc(C(=O)N3CCOCC3)sc21	0.2	3	19	-5	-0.4	-1.9%
COc1ccc(OC)c(C2CC(=O)Nc3cc(OC)c(OC)c(OC)c32)c1 (stereo not given)	0.3	10	-3	-7	0.0	-0.3%
CCc1ccc(OC(=O)CSc2nnc(-c3ccc(OC)c(OC)c3)o2)cc1	4.1	nt	21	nt	nt	0.1%
COc1ccc(C(CNC(=O)CNC(=O)c2cccc(F)c2)N2CCOCC2)cc1 (stereo not given)	-0.2	4	3	-10	-3.9	1.0%
Cc1ccc(-c2cc(C(=O)NCc3cn(C)nc3C)c3cc(Br)ccc3n2)cc1	0.1	0	14	-3	-0.3	4.4%
CCCCN1CCN=C1N(C)C	0.1	3	-5	-6	-4.1	-0.4%

Single entries from the list.
Reading for COc1ccc(OC)c(C2CC(=O)Nc3cc(OC)c(OC)c(OC)c32)c1 (stereo not given) under D2 agonist: 0.0
Reading for CCN1CCN(c2ccc(S(=O)(=O)N3CCOCC3)cc2NC(=O)c2ccc(C(F)(F)F)cc2)CC1 under Six1-Eya2 blk: 3
Reading for COc1ccccc1CC(=O)c1ccccc1OC under Six1-Eya2 blk: -11

(listing goes on)
SMILES	TRPML1 agonist	Six1-Eya2 blk	TRPML1 blocker	D2 potentiator	D2 agonist	PINK1 modulator
CS(=O)(=O)c1ccc(-c2nnc(NC(=O)c3ccco3)o2)cc1	-0.2	0	-10	-5	0.0	2.1%
COc1ccc(CCNC(=O)Cn2nnc(-c3ccc(Cl)cc3)n2)cc1OC	1.3	nt	8	nt	nt	0.6%
COc1ccc(C(=O)NCc2nnc(SCC(=O)Nc3ccccc3)n2-c2ccccc2)cc1	1.0	nt	-13	nt	nt	0.9%
CCN(C(=O)COC(=O)CNC(=O)c1ccc(C)c(C)c1)C1CCS(=O)(=O)C1 (stereo not given)	5.1	8	-26	-2	0.3	-0.4%
Cc1ccc(C(=O)Oc2cc(-c3ccc4c(c3)OCO4)cc(=O)c3c(C)oc(C)c23)cc1	1.9	nt	-18	nt	nt	0.5%
O=C(COC(=O)c1cnccn1)NCc1ccccc1Cl	-0.1	0	21	-9	0.8	-1.5%
O=C(c1cc2cc(Cl)ccc2[nH]1)N1CCN(C(=O)c2ccco2)CC1	-0.5	2	9	3	5.0	2.6%
CC(C)n1ncc2c(C(=O)NCCc3ccc(F)cc3)cc(C3CC3)nc21	3.4	2	10	-38	-0.8	?
COc1ccccc1-n1cnc2sc(C)c(C)c2c1=O	1.6	-1	25	-6	2.2	-1.0%
CCc1ccc2[nH]c(=O)c(C(c3nnnn3CC3CCCO3)N3CCCc4ccccc43)cc2c1 (stereo not given)	0.5	-7	4	0	0.7	-3.9%[38.3 µM]
S=c1[nH]nc(-c2ccncc2)n1/N=C/c1ccccc1Cl	0.4	-2	38	-4	-7.2	-1.6%
Cc1ccc(NC(=O)Cn2c(=O)n(-c3ccc(Cl)c(Cl)c3)c(=O)c3c(C)c(C)sc32)c(C)c1	0.5	nt	-1	nt	nt	2.8%
Cc1ccc(N=C2NC(=O)/C(=C/c3cccnc3)S2)cc1C	0.1	-2	-10	-17	-1.5	0.7%
CC(Oc1nc2c(c(=O)n(C)c(=O)n2C)n1C)C1CCCCC1 (stereo not given)	3.8	-13	-2	1	-2.1	3.9%
COC(=O)c1cn(C(=O)c2cc(Br)ccc2Cl)c2ccccc12	-0.3	1	16	-8	-5.3	9.3%
O=[N+]([O-])c1cccc(C(O)C23CN4CN(CN(C4)C2)C3)c1 (stereo not given)	-0.1	6	8	-8	-4.9	-2.9%
CCCCC1CCC(C(=O)N(C)CC(=O)Nc2cccc(F)c2)CC1 (stereo not given)	-0.1	23	6	3	-2.3	6.7%
CCN(CC)C(=O)C1CCCN(Cc2ccccc2C(F)(F)F)C1 (stereo not given)	-0.3	6	18	-5	-0.1	2.6%
COc1ccc(CNc2nc(-c3ccco3)nn2C(=O)CC(C)C)cc1	0.7	nt	-13	nt	nt	1.4%
Cc1ccc(CNC(=O)C2CCCN(c3nc4ccccc4o3)C2)cc1 (stereo not given)	-0.6	13	-6	-6	-5.8	-0.5%
CN(Cc1cc([N+](=O)[O-])ccc1Cl)C(=O)C[n+]1ccccc1	-0.2	2	-13	-4	1.2	-1.5%
COc1cc(OC)c(S(=O)(=O)Nc2ccccc2C(=O)O)cc1S(=O)(=O)Nc1ccccc1C(=O)O	1.2	12	3	-2	0.3	6.4%
COc1ccc(N2CCN(c3oc(COc4ccccc4Cl)nc3C#N)CC2)cc1	1.6	?	31	4	-2.8	-1.0%
